PMP22 txn: modulates PMP22 transcription in S16 Schwann cells | S16 Pmp22-F2sN Schwann cells (luciferase reporters placed in the Pmp22 gene), FLuc/NLuc coincidence luminescence, 24 h | Potency, µM (highest dose often 57.5 µM), for the others: at the top dose activity change, negative = inhibition, most hits filed as inhibitors | hit rate 2% among 43,000; active = clear falling dose curves in both reporters; inconclusive = both reporters move, but less clearly or upward; inactive = either reporter flat; the % is the NLuc reporter signal; also: % is scaled to controls: 0 for no effect and ±100 for the full control effect; some results filed as inactive show a strong effect at the top dose
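Rat S16 Pmp22-F2sN cells, 500-1,000/well in phenol red-free DMEM + 10% FBS, compound-treated 24 h (37C, 5% CO2). Luminescence: FLuc read, Stop&Glo added, NLuc read.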
HTT prom inh: inhibits huntingtin promoter activity; Potency, µM (series often up to 57.5 µM), without a hit: at the highest dose activity change, negative = inhibition, actives largely listed as inhibitors; HEK293 HTT promoter firefly luciferase reporter (activity 0% = vehicle and -100% = no light), 24 h; hit rate 0.93% among 48,000; active = well fitted inhibition curve with a large enough effect; inconclusive = small, poorly fitted or top-dose-only effect; inactive = no such curve, though single readings can be large or run the other way; also: nearly all actives have a fitted effect of over 50% in size
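Firefly luciferase signal from promoter-reporter HEK293 cells was scaled between vehicle (0%) and zero RLU (-100%). Compounds were tested at final concentrations of up to 57.5 uM over 24 h at 37 degrees C. PTC124 at 50 uM final served as control inhibitor.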
Starred values were filed as active, the others as inactive; ? = inconclusive; · = not tested or not shown; [ ] = another dose, or the depositor's remark. Potency is read from the fitted curve at half-maximal effect. No enrichment for hits; about 2.4% have a hit in one of these screens.

SMILES	PMP22 txn	HTT prom inh
COc1ccc(C(=O)Nc2nonc2-c2ccc(OC)c(OC)c2)cc1Cl	?	?
CCOC(=O)c1cc(S(=O)(=O)N2CCN(c3cc(Cl)ccc3C)CC2)[nH]n1	-5.7%	-16.6%
COc1ccc(C2c3c(n(C)c4ccccc34)C(=O)N2CC(=O)Nc2c(C)cc(C)cc2C)cc1 (stereo not drawn)	?	?
COc1ccc(C(=O)NCCc2csc(-c3ccc(Cl)cc3)n2)c(OC)c1	?	?
CCCn1ccc2c(OCC(=O)NCc3ccc(C)cc3)cccc2c1=O	-10.5%	0.0%
CCOc1ccc(-c2cc(OC(=O)c3ccc(F)cc3)c3c(C)oc(C)c3c(=O)c2)cc1	?	?
Cc1ccc(N2CCN(C(=O)CCS(=O)(=O)c3cc4c(cc3Cl)NC(=O)CO4)CC2)c(C)c1	?	-26.9%
CCOc1ccc(NC(=O)C(C)Sc2nc3ncccc3o2)cc1 (stereo not drawn)	?	50.6%[activator]
O=C(CSc1nc2c([nH]c3ccccc32)c(=O)n1-c1cccc(Cl)c1)c1ccccc1	14.1µM*	-18.2%
CCCCn1c(NCc2ccc(OC)cc2O)nc2ccccc21	?	-15.3%
CCOc1cc(C(=O)Nc2nnc3n2CCS3)cc(OCC)c1OCC	-14.8%	-4.2%
Cc1ccc(OCC(=O)Nc2c(Cl)ccc3nsnc23)cc1C	?	?
CCCCOc1ccc(S(=O)(=O)n2nc(C)c(S(=O)(=O)N3CCC(C)CC3)c2C)cc1	1.8%	-12.6%
CC1=C(c2ccc(C)cc2)S(=O)(=O)N=C1N1CCN(c2ccccc2)CC1	-20.0%	-5.4%
COc1cc2cc(CNc3ccc(C)cc3)c(=O)n(CC(=O)Nc3ccc(C(C)C)cc3)c2cc1OC	?	-16.4%
COc1ccc(OCc2nc3ccccc3n2C(C)c2ccccc2)cc1 (stereo not drawn)	-52.0%	-8.2%
COCCNC(=O)CSc1nc(-c2ccccc2)[nH]c1-c1ccc(OC)cc1	12.9%	-10.7%
CCN(C(=O)c1cn(-c2ccc(OC)cc2)c(=O)c2ccccc12)c1cccc(Cl)c1	-10.7%	-25.0%
COc1ccc(C(=O)c2sc3nc(-c4ccc(F)cc4)ccc3c2N)cc1	?	7.7%
CCc1ccc(CNC(=O)c2cc3n(n2)CCCN(Cc2ccccc2)C3=O)cc1	-26.2%	?
CN(C)c1ccc(CN2CCc3nc(N4CCN(c5ccccn5)CC4)ncc3C2)cc1	?	?
CCC(=O)N1CCc2cc(Br)cc(S(=O)(=O)CCC(=O)NCCc3ccc(OC)c(OC)c3)c21	13.2%	2.3%
CC(=O)N1CCCc2cc(S(=O)(=O)N3CCCC(C(=O)Nc4ccc(C)cc4C)C3)ccc21 (stereo not drawn)	-15.7%	-7.1%
Cc1ccc(S(=O)(=O)c2nc(-c3cccc(C)c3)oc2N2CCCCC2)cc1	?	?
O=C(CN1c2ccccc2S(=O)(=O)c2ccccc21)Nc1ccccc1Cl	-16.1%	0.0%
CCc1ccc(S(=O)(=O)Nc2ccc3c(c2)sc(=O)n3C)cc1	?	?
COc1ccc(N2CC(NC(=O)CCCc3ccccc3)CC2=O)cc1 (stereo not drawn)	-7.7%	2.5%
CC1CCN(S(=O)(=O)c2ccc3c(c2)CCN3C(=O)Nc2ccccc2Br)CC1	-21.2%	3.2%
Oc1c(C(c2ccccc2)N2CCOCC2)sc2nc(-c3ccco3)nn12 (stereo not drawn)	7.0%	-1.0%
CCOc1ccc(OC(=O)c2cn(-c3ccc(C)cc3)c(=O)c3ccccc23)cc1	-34.0%	-17.9%
O=C1OC(C(=O)Nc2cccc(Br)c2)Cc2ccccc21 (stereo not drawn)	2.4%	0.7%
COc1cccc(CNC(=O)c2cc(S(=O)(=O)N3CCCCCC3)cn2C)c1	-14.9%	-18.5%
COc1cccc(Cn2c(C)c(CNC3CCCCC3)c(C(=O)O)c2C)c1	-5.2%	1.9%
Cc1cccc(C(=O)Nc2cc3c(cc2N2CCOCC2)n(C)c(=O)n3C)c1	4.2%	4.0%
O=C(c1ccc2c(c1)OCCO2)N(Cc1cccnc1)c1nc2ccc(Cl)cc2s1	-15.6%	13.8%
COc1ccc(Nc2oc(-c3ccc(COc4ccc(OC)cc4)o3)nc2C#N)cc1	-18.9%	?
C=Cc1ccc(Cn2nc(-c3ccc(C)cc3)ccc2=O)cc1	-21.7%	-21.0%
Cc1nn2c3c(cnc2c1-c1ccc(Cl)cc1)C(=O)CC(c1ccc(C(C)C)cc1)C3 (stereo not drawn)	1.6%	-12.0%
CCOC(=O)c1[nH]c(C)c(CCC(=O)NCc2ccc(C)cc2)c1C	14.8%	-8.1%
O=C(Nc1ccc2c(c1)N(C1CCCC1)C(=O)c1ccccc1S2)c1ccccc1	-1.1%	?
CC(C)CCNC(=O)C(=O)Nc1c2c(nn1-c1ccc(Cl)cc1)CSC2	?	-6.0%
Cc1ccc(-n2c3c(c(=O)[nH]c2=O)C(NS(=O)(=O)c2ccc(Cl)cc2)(C(F)(F)F)C(=O)N3)cc1 (stereo not drawn)	-38.1%	-15.4%
COc1cc(NC(=O)C2=CC(c3ccco3)=NS(=O)(=O)N2C)cc(OC)c1OC	-9.5%	-20.3%
CCc1ccc(NC(=O)c2cc3ccccn3n2)cc1	2.7%	?
COc1ccccc1Cn1cc(C(=O)c2ccc(Cl)cc2)c(=O)c2ccccc21	?	?
CCn1c(C)c(C2N3CC4(C)CN2CC(C)(C3)C4=O)c2ccccc21 (stereo not drawn)	?	-6.9%
CCc1cccc(OCC(=O)Nc2ccc(S(=O)(=O)Nc3cc(C)nc(C)n3)cc2)c1	4.0%	-27.3%
CCCOC(=O)c1c(NC(=O)c2nc3ncccn3n2)sc(C(=O)OCC)c1C	-24.0%	-10.7%[11.5 µM]
CCOC(=O)c1cnc2cc(C(F)(F)F)ccc2c1N1CCN(c2cccc(Cl)c2)CC1	-19.9%	?
Cn1c(=O)c2c(-c3ccccc3)n3c4ccccc4nc(-c4ccccc4)c3c2n(C)c1=O	?	-4.3%
O=C(COCc1cc(-c2ccc3c(c2)OCO3)on1)N1CCN(c2ccccc2)CC1	-38.1%	-30.5%
CC1CCc2c(sc(NC(=O)C3c4ccccc4Oc4ccccc43)c2C(=O)OC(C)C)C1 (stereo not drawn)	-1.0%	-12.1%
COCCn1c(=O)[nH]c2cc(C(=O)NCc3ccccc3Cl)ccc2c1=O	-2.3%	-16.1%
Cc1cccc(Nc2nnc(-c3ccc(C)c(S(=O)(=O)NCC4CCCO4)c3)c3ccccc23)c1 (stereo not drawn)	?	?
CC1Cc2ccccc2N1S(=O)(=O)c1nnc(NC(=O)c2ccccc2Br)s1 (stereo not drawn)	-1.8%	?
CN(CC(=O)N(Cc1ccc(C2CCCCC2)cc1)c1ccc(C(=O)O)c(O)c1)S(=O)(=O)c1c(F)c(F)c(F)c(F)c1F	·	32.2%[activator]
CCOC(=O)N1CCN(Cc2nc3cc(NC(=O)CC)ccc3n2C(C)C)CC1	5.32µM*	?
CCOC(=O)c1cc(-c2ccc(OC)c(S(=O)(=O)Nc3ccc(OC)cc3OC)c2)on1	?	1.1%
CCCCCCCCCCCCSCCOCCO	·	2.7%
CCCNC(=O)CN1C(=O)c2cccnc2Sc2ccccc21	2.1%	-3.1%

The results go on:
SMILES	PMP22 txn	HTT prom inh
CCOc1ccc(-n2c(=O)c3c4c(sc3n(Cc3cccc(C)c3)c2=O)CCCC4)cc1	-2.6%	-5.0%
Cc1ccc(Cl)cc1N1CCN(S(=O)(=O)c2cc(Br)cc3c2N(C(=O)C2CC2)CC3)CC1	3.2%	-8.1%
CCC(C(=O)N1CCN(c2cc(Cl)ccc2C)CC1)n1nc(C)c2sc3ccccc3c2c1=O (stereo not drawn)	-3.6%	-0.2%
CCOC(=O)c1c(C)oc2nc(C)nc(NCc3ccc(OC)cc3)c12	-0.7%	6.7%
COc1cccc(Cn2c(SCc3ccc(C(=O)N4CCCCC4)cc3)nc3ccncc32)c1	-11.4%	12.6µM*
Cc1cccc(Cc2c(C)nc3nc(SCc4ccccc4Cl)nn3c2C)c1	3.8%	-7.6%
Cc1cc(C)cc(NC(=O)C2CCCN(c3cnccn3)C2)c1 (stereo not drawn)	-5.6%	-0.7%
COc1ccc(CCNC(=O)Cn2ncc3c(=O)oc4ccccc4c32)c(OC)c1	-7.6%	-14.7%
O=C(c1ccc2c(c1)OCO2)c1cn(Cc2ccc(Cl)cc2)c2ccc(F)cc2c1=O	-2.3%	?
Cc1cccc(N(CC(=O)Nc2ccccc2C(F)(F)F)S(=O)(=O)c2ccccc2)c1C	-11.1%	-28.6%
CCOc1ccc(-c2nnc(SCC(=O)NCc3ccc(C)cc3)nc2-c2ccc(OCC)cc2)cc1	-8.5%	2.5%
COc1ccc(-c2n[nH]c3c2C(c2ccc(Cl)cc2Cl)NC3=O)cc1 (stereo not drawn)	?	?
CCOc1cc(C(=O)N2CCc3c([nH]c4ccccc34)C2c2ccccc2)cc(OCC)c1OCC (stereo not drawn)	?	?
CCOc1ccc(N(Cc2ccccc2)C(=O)c2nc(S(C)(=O)=O)ncc2Cl)cc1	1.5µM*	?
Cc1cccc(C)c1OCc1nc2c3c(-c4ccccc4)c(-c4ccccc4)oc3ncn2n1	11.0%	-6.8%
CCc1cc(C(=O)Nc2c(C)nn(Cc3ccccc3Cl)c2C)no1	-31.2%	-8.1%[11.5 µM]
COc1ccc2sc(N(Cc3cccnc3)C(=O)COc3ccccc3)nc2c1	-10.9%	-16.5%
O=C(CSc1cn(CC(=O)N2CCOCC2)c2ccccc12)Nc1ccccc1F	-0.8%	-4.3%
COc1ccc(N2C(=O)CSC23C(=O)N(Cc2cccc(F)c2)c2ccccc23)cc1Cl (stereo not drawn)	?	?
CC(CCc1ccccc1)NC(=O)Cn1ncc2c3ccccc3n(Cc3cccc(Cl)c3)c2c1=O (stereo not drawn)	-9.6%	6.7%
CCNc1c(NC(=O)c2cc(OCC)c(OCC)c(OCC)c2)c(=O)oc2ccccc12	8.6%	-14.9%
Cc1ccc(C(=O)NC2(C(F)(F)F)N=C(c3ccccc3)N(Cc3ccccc3)C2=O)cc1 (stereo not drawn)	4.5%	-16.4%
CCc1nn(CC(=O)NCCCOC)c(=O)c2cc3occc3n12	-42.0%	-12.4%
NS(=O)(=O)c1cc(C2(O)NC(=O)c3ccccc32)ccc1Cl (stereo not drawn)	·	11.4%
Cc1cccc(C(=O)Nc2sc3c(c2C(=O)NCc2ccco2)CCCC3)c1	?	22.2%
COc1ccc(NC(=O)C(C)N(c2ccccc2)S(C)(=O)=O)cc1 (stereo not drawn)	11.0%	3.6%[11.5 µM]
Cc1ccc(OCC(O)Cn2c(=N)n(CCN3CCCCC3)c3ccccc32)cc1 (stereo not drawn)	?	-20.9%
COc1ccc(NC(=O)CN2C(=O)CSc3ccc(S(=O)(=O)N(C)C)cc32)cc1OC	-6.4%	-6.5%
N#CC(=Cc1ccc(O)c(O)c1)C(=O)NCc1ccccc1	·	6.4%
CCCC(=O)N(c1ccc2oc(-c3ccccc3)c(C(=O)OCC)c2c1)S(=O)(=O)c1ccc(C)cc1	?	-1.6%
Cc1ccc(C(=O)N2CCN(c3ccccc3F)CC2)cc1NC(=O)c1nsc2ccccc12	?	?
Cc1ccc(C)c(N2CCN(C(=O)C(CC(C)C)NS(=O)(=O)c3ccc4nc(C)sc4c3)CC2)c1 (stereo not drawn)	?	?
O=c1n(Cc2ccc(Cl)cc2)nc2n1-c1ccccc1OC2	-1.6%	2.7%
CCc1nnc2c(N3CCN(c4cccc(C(F)(F)F)c4)CC3)nc3ccccc3n12	?	0.2%
CCCCCCCCCCCCCC[N+](C)(C)C	·	?
CCOC(=O)c1cc(OC(=O)c2ccc(Cl)cc2)n(-c2ccccc2)n1	13.1%	2.9%

A draw from above in order of formula weight, falling.
SMILES	PMP22 txn	HTT prom inh
Cc1ccc(-n2c3c(c(=O)[nH]c2=O)C(NS(=O)(=O)c2ccc(Cl)cc2)(C(F)(F)F)C(=O)N3)cc1 (stereo not drawn)	-38.1%	-15.4%
CCOC(=O)c1cnc2cc(C(F)(F)F)ccc2c1N1CCN(c2cccc(Cl)c2)CC1	-19.9%	?
COCCn1c(=O)[nH]c2cc(C(=O)NCc3ccccc3Cl)ccc2c1=O	-2.3%	-16.1%
COc1cccc(Cn2c(C)c(CNC3CCCCC3)c(C(=O)O)c2C)c1	-5.2%	1.9%

Reprinted at random: four compounds from above
SMILES	PMP22 txn	HTT prom inh
Cc1ccc(OCC(O)Cn2c(=N)n(CCN3CCCCC3)c3ccccc32)cc1 (stereo not drawn)	?	-20.9%
COc1ccc(NC(=O)CN2C(=O)CSc3ccc(S(=O)(=O)N(C)C)cc32)cc1OC	-6.4%	-6.5%
Cc1ccc(C(=O)N2CCN(c3ccccc3F)CC2)cc1NC(=O)c1nsc2ccccc12	?	?
Cc1cccc(C(=O)Nc2sc3c(c2C(=O)NCc2ccco2)CCCC3)c1	?	22.2%

Further structures follow.
SMILES	PMP22 txn	HTT prom inh
CCOc1ccc(OCC(=O)NCCS(=O)(=O)N2CCN(c3cccc(Cl)c3)CC2)cc1	?	?
Cc1cc(F)ccc1NC(=O)C1CCCN(C(=O)c2cnn(-c3ccccc3)c2-n2cccc2)C1 (stereo not drawn)	?	?
CC(C)(C)OC(=O)N1CCC(c2c(C(=O)N3CCCCC3)cnn2-c2ccccc2Cl)CC1	-1.0%	-1.9%
CC1=C(C(N)=O)C(c2ccc(C)cc2)n2nc(SCc3ccccc3F)nc2N1 (stereo not drawn)	0.6%	-4.8%
